From PubChem
HTT prom inh: inhibitors of huntingtin promoter activity | Potency, µM (series often up to 57.5 µM), inactives show at the highest dose activity change, negative = inhibition, most hits filed as inhibitors | HEK293 HTT promoter firefly luciferase reporter (activity 0% = vehicle and -100% = no light), 24 h | actives 0.93% (n = 48,000); active = well fitted inhibition curve with a large enough effect; inconclusive = small, poorly fitted or top-dose-only effect; inactive = no such curve, though single readings can be large or run the other way; note: nearly all actives have a fitted effect of over 50% in size
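Luminescence was read after Dual-Glo reagent and a 10 min room-temperature incubation. Values were normalized to vehicle (0% activity) and zero RLU (-100% activity). Reporter HEK293 cells had been exposed to compounds (up to 57.5 uM final) for 24 h.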
PMP22 txn prim: modulates PMP22 transcription in S16 Schwann cells | S16 Pmp22-F2sN Schwann cells (luciferase reporters placed in the Pmp22 gene), FLuc/NLuc coincidence luminescence, 24 h | Potency, µM (top dose mostly 57.5 µM), without a hit: top-dose activity change, negative = inhibition, hits mostly inhibitors | actives 2% (n = 43,000); active = clear falling dose curves in both reporters; inconclusive = both reporters move, but less clearly or upward; inactive = either reporter flat; the % is the NLuc reporter signal; note: % is set by controls: 0 for no effect and ±100 for the full control effect; some results filed as inactive show a strong effect at the top dose
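Luminescent read-out of sequential FLuc and NLuc signals from a reporter embedded in the Pmp22 3' UTR of S16 Schwann cells, taken after 24 h compound exposure at 37C; compounds reducing both signals score as inhibitors of expression.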
Numbers without * were called inactive; u = inconclusive; x = no result given; [ ] = another dose, or the depositor's remark. Potency is the fitted concentration of half-maximal effect.

| molecule | HTT prom inh | PMP22 txn prim |
| --- | --- | --- |
| O=C(Nc1ccc(Cl)cc1)C1CCCN(S(=O)(=O)c2ccc3[nH]c(=O)ccc3c2)C1 (stereo unspecified) | -27.4% | -16.5% |
| COc1ccc(CNC(=O)CN(c2ccc(OC)cc2)S(=O)(=O)c2c(C)[nH]c(=O)[nH]c2=O)cc1 | -10.0% | -21.4% |
| CCCCCN=C(N)NN=Cc1c[nH]c2ccc(OC)cc12 | -31.2% | x |
| COc1ccc(CNC(=O)c2sc3nc[nH]c(=O)c3c2C)cc1 | 1.8% | -38.0% |
| CCn1c(C)c(C)c2cc(C(=O)NCCc3ccc(C)cc3)ccc21 | -4.0% | 18.3% |
| CCc1ccc2occ(CC(=O)Nc3nnc(SC)s3)c2c1 | -15.0% | -13.7% |
| CC1=C(C(=O)Nc2cccnc2)C(c2ccc(Cl)cc2)n2nc(-c3ccccc3)nc2N1 (stereo unspecified) | -18.6% | -43.3% |
| CCNC(=O)c1c(NC(=O)Cc2coc3ccc(CC)cc23)sc2c1CCCC2 | -30.0% | -24.9% |
| Cc1ccc2c(=O)cc(C(=O)Nc3sc4c(c3C(=O)NCc3ccccc3)CCCC4)oc2c1C | 6.1% | -0.2% |
| O=C(Oc1ccccc1)c1ccccc1O | -0.6% | x |
| O=C(Nc1ccc2oc(-c3cccnc3)nc2c1)c1ccc(-c2ccc(Cl)cc2)o1 | 7.5% | 0.7% |
| COc1ccc(-n2c(SCc3ccccc3F)nc3c([nH]c4ccccc43)c2=O)cc1 | -13.5% | u |
| CN1CCN(C2Cc3ccccc3Sc3ccc(Cl)cc32)CC1 (stereo unspecified) | -22.4% | x |
| CCC1CCCCN1CCCNC(=O)c1ccc2c(c1)c(C)c(C)n2CC (stereo unspecified) | -3.6% | u |
| Cc1ccc(OCCn2nnc3sc4c(c3c2=O)CCC(C(C)(C)C)C4)cc1 (stereo unspecified) | 6.1% | 4.8% |
| Cc1c(NS(=O)(=O)c2cccc(C(=O)O)c2)c(=O)n(-c2ccccc2)n1C | 2.9% | 2.6% |
| Cc1cc(Nc2cccc(Cl)c2)nc2ccc(NC(=O)c3cccnc3)cc12 | u | u |
| COc1cc(C(=O)Nc2cc(C)c(O)c(-c3nc4ccccc4s3)c2)cc(OC)c1OC | -8.1% | -5.4% |
| CCCCNC(=O)CSc1nc2cc3c(cc2c(=O)n1Cc1ccc(C(=O)NCCc2ccc(OC)c(OC)c2)cc1)OCO3 | -10.8% | u |
| CCOC(=O)N1CCN(C(=O)c2ccc3c(c2)N(Cc2ccccc2F)C(=O)c2ccccc2S3(=O)=O)CC1 | -18.4% | 11.1% |
| CC(NC(=O)C1CCN(S(=O)(=O)c2ccc(F)cc2)CC1)c1ccccc1 (stereo unspecified) | -14.8% | -15.2% |
| CCN1CCN(c2csc3ccc(Cl)cc3c2=O)CC1 | 21.2% | -12.5% |
| COc1ccccc1-c1nnc(C2CCN(C(=O)c3cccc(C)c3)CC2)o1 | -15.8% | 6.1% |
| COc1cccc(NC(=O)CSc2nnc(-c3cccc(OC)c3)o2)c1 | 60.4%[activator] | -15.3% |
| CCN(CC)CCNC(=O)CN1N=C(c2ccc(OC)cc2)CCC1=O | -8.9% | -3.7% |
| CCOc1ccc(OCC)c(NC(=O)CCC(=O)N2CCOc3ccccc32)c1 | u | 3.4% |
| O=C(COc1ccc(Cl)cc1)Nc1nnc(S(=O)(=O)N2CCc3ccccc32)s1 | -16.7% | 14.7% |
| Cc1ccc(-c2nnc(Nc3ccc(Br)cc3)c3ccccc23)cc1S(=O)(=O)N1CCOCC1 | -12.2% | u |
| Cc1ccc(-c2noc(-c3ccccc3NC(=O)C3CC(=O)N(c4ccc(C)cc4)C3)n2)cc1 (stereo unspecified) | 33.0%[activator] | -14.2% |
| O=C(COCc1cc(-c2ccc(F)cc2)on1)Nc1cccc(Cl)c1Cl | -1.2% | u |
| Cc1ccc(-c2nc3ccc(Cl)cn3c2Nc2ccc3c(c2)OCCO3)s1 | 36.4%[activator] | -23.8% |
| CC1=C(C(=O)NCc2cccc(F)c2)C2(CCCCC2)OC1=O | -20.5% | -0.1% |
| COc1cc(OC)c(NC(=O)c2cc3c(=O)oc4ccc(C)cc4c3s2)cc1Cl | -16.4% | u |
| Cc1ccc(NC(=O)c2sc3nc4c(cc3c2N)CN(Cc2ccccc2)CC4)cc1 | 5.8% | u |
| CC(C)(C)OC(=O)N1CCC(c2c(C(=O)N3CCN(c4ccccn4)CC3)cnn2-c2ccccc2Cl)CC1 | -9.2% | -50.7% |
| O=C(Cn1nc2c(cc1=O)CCCC2)Nc1ccccc1C(F)(F)F | 9.9% | -3.8% |
| O=C(Cn1nc(-c2ccccc2)nc(Cc2ccccc2)c1=O)Nc1ccccc1 | -19.5% | 1.8% |
| Cc1ccc(C(=O)n2nc(C)c(S(=O)(=O)N3CCCCCC3)c2C)cc1 | -6.2% | u |
| O=C(CCNS(=O)(=O)c1cccc2nonc12)Nc1ccc(F)cc1 | -8.6% | -0.4% |
| CCOC(=O)c1cc(-c2ccc(C)cc2)n(CC(=O)Nc2ccc(OC)cc2OC)c1C | 4.2% | u |
| Cc1ccc(S(=O)(=O)c2nnn3c2nc(N2CCC(C)CC2)c2cc(Cl)ccc23)cc1C | -27.2% | u |
| COc1ccc(C2C(C(=O)Nc3ccccc3)=C(C)Nc3c(C(=O)Nc4ccccc4)cnn32)cc1 (stereo unspecified) | -0.2% | u |
| CCCOc1c(Cl)cc(C(=O)N(Cc2cccc(OC)c2)C2CCS(=O)(=O)C2)cc1Cl (stereo unspecified) | u | -14.3% |
| COc1ccc(-n2nnc(-c3nsc(NC(=O)c4ccc(C)c(C)c4)n3)c2C)cc1Cl | u | -37.8% |
| OCCN1CCN(CCCN2c3ccccc3C=Cc3ccccc32)CC1 | -1.3% | x |
| COCCCNC(=O)c1nn(-c2ccc(C)cc2)c(=O)n(C)c1=O | 0.8% | 5.3% |
| Cc1ccc(-n2ncc(C(=O)N3CCN(Cc4ccccc4)CC3)c2C2CCN(C(=O)OC(C)(C)C)CC2)cc1 | u | u |
| Cc1ccc(NC(=O)C(Cc2ccccc2)n2cccc2)cc1 (stereo unspecified) | -2.7% | -8.8% |
| O=C(NCc1cccnc1)C1CCN(Cc2cc3ccccc3n2Cc2cccc(Cl)c2)CC1 | -23.3% | u |
| CCc1ccc(-c2nc3cc(NC(=O)c4ccc(F)cc4)ccc3o2)cc1 | -5.4% | 1.8% |
| Cc1ccc(OCCCCn2nnc3sc4c(c3c2=O)CCCC4)cc1 | 7.0% | 7.2% |
| O=C(CCSCc1cccc(Cl)c1)NCc1ccc(F)cc1Cl | u | -7.2% |
| Cc1cccc(NC(=O)C(NS(=O)(=O)c2ccc3c(c2)oc(=O)n3C)C(C)C)c1 (stereo unspecified) | -8.7% | -3.7% |
| CCC(Oc1ccccc1)C(=O)Nc1ccc(O)c(-c2nc3cc(C)ccc3o2)c1 (stereo unspecified) | 13.3% | -23.8% |
| CCOc1ccc(Nc2nn(-c3ccc(OC(F)(F)F)cc3)nc2C(C)=O)cc1 | -10.9% | -15.5% |
| Cc1ccc(-n2nc(C(=O)NCc3ccc(F)cc3Cl)c3c4ccccc4n(C)c3c2=O)cc1 | -14.3% | -34.1% |
| CCOC(=O)c1c(-c2ccccc2)oc2ccc(NS(=O)(=O)c3cc(C)c(C)cc3C)cc12 | u | u |
| O=C(CCn1c(=O)c2sccc2n(Cc2ccccc2F)c1=O)NCc1ccc2c(c1)OCO2 | -3.9% | -3.5% |
| Cc1ccc(C)c(NC(=O)C(C)n2c(=O)cc(C(F)(F)F)c3c(C)nn(C)c32)c1 (stereo unspecified) | 6.2% | -8.0% |
| Cc1[nH]n(-c2ccccc2)c(=O)c1C(c1cc(Cl)ccc1O)c1c(C)[nH]n(-c2ccccc2)c1=O | -3.6% | -19.7% |

(list continues)
| molecule | HTT prom inh | PMP22 txn prim |
| --- | --- | --- |
| COc1cccc(-n2c(=O)c3sc4ccccc4c3n(Cc3c(F)cccc3Cl)c2=O)c1 | -6.8% | -3.6% |
| CCOC(=O)N1CCC2(CC1)OC(=O)C(C)=C2C(=O)NCc1ccccc1OC | -7.6% | -27.2% |
| COc1ccc(NC(=O)c2sc3nc4c(cc3c2N)CCCCCC4)cc1Cl | u | u |
| COc1ccc(CNC(=O)c2ccc3nc(CCc4ccccc4)oc3c2)c(OC)c1 | -17.6% | -11.8% |
| CCc1ccccc1N(C)C(=O)Cc1c(C(=O)O)c(C)cn1C | -8.7% | -4.6% |
| O=c1nc2sc3ccccc3n2c(=O)n1-c1ccc(Cl)c(Cl)c1 | -13.7% | 6.9% |
| COc1cccc(-n2cc(C(=O)Oc3ccc(F)cc3)c3ccccc3c2=O)c1 | -27.0% | -26.6% |
| CCCOc1ccc(CNC(=O)c2ccc3c(c2)N(Cc2ccccc2)CCS3)cc1 | u | -32.8% |
| COc1cc(-c2nc3nc[nH]n3c2Nc2ccc(C(C)C)cc2)ccc1O | -20.2% | u |
| Cc1ccc(-c2nc(N3CCCC(C)C3)c3ccccc3n2)cc1 (stereo unspecified) | -9.7% | -18.3% |
| O=C(NCCc1ccc(Cl)cc1)c1cccn1-c1nnc(N2CCCC2)s1 | -17.1% | -24.9% |
| O=C1CC(c2nc(-c3ccc(Cl)cc3)no2)CN1c1ccc2c(c1)OCCO2 (stereo unspecified) | -14.7% | -10.5% |
| Nc1ccc(C(=O)NCC(=O)O)cc1 | 1.2% | x |
| O=C(Cc1ccccc1)Nc1sc2c(c1C(=O)Nc1ccccc1)CCCCC2 | 0.1% | u |
| COc1cc2ccccc2cc1C(=O)Nc1ccc2oc(-c3ccc(F)cc3)nc2c1 | 41.0%[activator] | u |
| COc1ccc(NC(=O)CCCc2nnc3n(CCC(C)C)c(=O)c4sccc4n23)cc1Cl | -28.3% | -5.1% |
| CCCn1c(=O)c2c(nc3n2CCN3c2ccc(C)cc2)n(C)c1=O | -1.0% | u |
| Cc1ccc(S(=O)(=O)C(CNC(=O)C(=O)NCCc2ccccc2)c2cccs2)cc1 (stereo unspecified) | u | u |
| COc1cc(C2N=C(N)Nc3nc4ccccc4n32)ccc1OCCC(C)C (stereo unspecified) | -14.9% | u |
| CCc1ccc(NC(=O)CN2CCN(C3CCCCC3)C(=O)C2=O)cc1 | 8.6% | 1.7% |
| CCc1ccc2oc(-c3ccc(C)c(NC(=O)c4ccc(C#N)cc4F)c3)nc2c1 | u | -1.0% |
| Cc1cccc(N2CCN(S(=O)(=O)c3c(C)nc4scc(C)n4c3=O)CC2)c1C | -27.0% | -19.7% |
| COc1ccc(OC)c(CCNC(=O)c2ccc(CS(=O)Cc3cccc(Cl)c3)o2)c1 (stereo unspecified) | -7.8% | -11.8% |
| COc1ccc(N(C)C(=O)c2oc(=O)c3ccccc3c2-c2ccc(C)cc2)c(OC)c1 | u | u |
| CCOC(=O)COc1ccc(CC)cc1C(=O)c1ccn2nc(-c3ccc(C)cc3)cc2n1 | u | -15.8% |
| CCn1c(=O)n(-c2ccc3c(c2)OCO3)c2nc(-c3cccc(OC)c3OC)nc(C(N)=O)c21 | -4.8% | -20.4% |
| Cc1ccc(CNC(=O)CCc2c(C)nn(-c3ccc(N4CCOCC4)nn3)c2C)cc1 | 2.1% | 7.7% |
| CCOc1ccc(N(C(=O)c2ccccc2F)S(=O)(=O)c2ccc3c(c2)n(C)c(=O)n3C)cc1 | 18.2% | 6.3% |
| CCc1ccccc1NC(=O)Cn1ccn(-c2cc(C)cc(C)c2)c(=O)c1=O | u | 0.8% |
| CC1=Nc2cc(C(=O)NC3CCCC3)ccc2Sc2ccc(Br)cc21 | u | u |

Part of the list above in order of SMILES length, ascending:
| molecule | HTT prom inh | PMP22 txn prim |
| --- | --- | --- |
| O=C(NCc1cccnc1)C1CCN(Cc2cc3ccccc3n2Cc2cccc(Cl)c2)CC1 | -23.3% | u |
| CCOC(=O)c1cc(-c2ccc(C)cc2)n(CC(=O)Nc2ccc(OC)cc2OC)c1C | 4.2% | u |
| COc1ccc(N(C)C(=O)c2oc(=O)c3ccccc3c2-c2ccc(C)cc2)c(OC)c1 | u | u |

(further entries)
| molecule | HTT prom inh | PMP22 txn prim |
| --- | --- | --- |
| Cc1c(-c2nsc(NC(=O)c3cccs3)n2)nnn1-c1ccc(Br)cc1 | -3.1% | u |
| COc1cc(NC(=O)N2CCC(CN3CCOCC3)CC2)cc(OC)c1OC | -15.5% | -46.4% |
| COc1ccc(-c2noc(CSc3nnc(C)n3-c3ccc(OC)cc3)n2)cc1 | u | u |
| COc1cccc(NC(=O)C(=O)NCC(c2cccnc2)N2CCN(c3ccccc3)CC2)c1 (stereo unspecified) | -4.7% | -9.6% |
| Cc1ccc2cccc(NC(=O)c3ccc(-c4ccc(Br)cc4)o3)c2n1 | -4.2% | u |
| Cc1cc(C)c(NC(=O)CN2C(=O)c3cccnc3Oc3ccc(C)cc32)c(C)c1 | -22.0% | -7.2% |
| COc1cc(C2c3c(-c4ccccc4O)n[nH]c3C(=O)N2CCO)ccc1OCc1ccccc1 (stereo unspecified) | -28.3% | 10.0% |
| COc1ccc(NC(=O)CSc2nc(C)cc(C)c2C(=O)Nc2ccccc2OC)cc1 | -21.5% | 10.7% |

One compound at a time, from the list above.
Entry for Cc1ccc2cccc(NC(=O)c3ccc(-c4ccc(Br)cc4)o3)c2n1 → HTT prom inh = -4.2%; PMP22 txn prim = u
Entry for COc1cc(NC(=O)N2CCC(CN3CCOCC3)CC2)cc(OC)c1OC → HTT prom inh = -15.5%; PMP22 txn prim = -46.4%
